KCNQ2 pot – enhances the rat KCNQ2 potassium channel; CHO-K1 KCNQ2, FluxOR thallium flux fluorescence; active compounds read high; AID 2239; 310,000 compounds, 0.54% hits; O88943; B-score at 10 µM;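 active = fluorescence ratio B-score at least 3 SD of library B-scores, with initial fluorescence B-score within 3 SD, cut at about 5.3 in these data; same plate scores as AID 2156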;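 also: B-score of peak minus minimum over baseline fluorescence ratio after K+ and Tl+ stimulus; positive B-score means potentiation of KCNQ2 with more thallium influx and brighter signal; only the inactives scoring about 0 or higher are listed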
Target sequence (O88943 whole entry, looked up): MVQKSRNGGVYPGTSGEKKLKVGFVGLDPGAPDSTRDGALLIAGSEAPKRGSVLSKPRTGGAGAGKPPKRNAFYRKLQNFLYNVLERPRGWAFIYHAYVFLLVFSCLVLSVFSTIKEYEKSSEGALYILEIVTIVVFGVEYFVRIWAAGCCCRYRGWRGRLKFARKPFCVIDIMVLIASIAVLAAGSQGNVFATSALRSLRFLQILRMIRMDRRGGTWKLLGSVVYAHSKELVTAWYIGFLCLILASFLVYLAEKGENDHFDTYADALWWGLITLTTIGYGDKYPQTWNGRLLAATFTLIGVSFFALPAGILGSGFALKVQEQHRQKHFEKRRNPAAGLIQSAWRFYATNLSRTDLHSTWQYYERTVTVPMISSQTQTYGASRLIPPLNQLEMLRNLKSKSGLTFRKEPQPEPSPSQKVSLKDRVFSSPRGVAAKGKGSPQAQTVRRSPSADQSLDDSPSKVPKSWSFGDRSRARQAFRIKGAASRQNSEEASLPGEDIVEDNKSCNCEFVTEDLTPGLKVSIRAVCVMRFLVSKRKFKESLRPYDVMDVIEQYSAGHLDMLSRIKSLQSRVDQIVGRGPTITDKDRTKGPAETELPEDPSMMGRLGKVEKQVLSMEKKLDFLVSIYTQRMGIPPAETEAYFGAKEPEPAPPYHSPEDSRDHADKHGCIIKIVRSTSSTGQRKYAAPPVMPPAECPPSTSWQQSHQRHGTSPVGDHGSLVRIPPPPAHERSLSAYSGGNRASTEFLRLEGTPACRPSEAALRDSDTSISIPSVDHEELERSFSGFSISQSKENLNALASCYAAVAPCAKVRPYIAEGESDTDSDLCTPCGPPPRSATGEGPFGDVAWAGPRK
KCNQ2 pot baseline – also measured in KCNQ2 pot; calls as there; B-score; compound at 10 µM; measured here: initial fluorescence intensity artifact check;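 brightness before thallium and not channel activity; 0 = typical well and far values either way flag optical interference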
Numbers without * were called inactive. A portion of the library; rates above refer to the full screens.

KCNQ2 pot	KCNQ2 pot baseline	structure
2.8	-0.51	CCOC(=O)c1ccc(NC(=O)CSc2nc(C)nc3c2c(=O)n(C)c(=O)n3C)cc1
5.8*	-1.4*	CCCc1sc(N/N=C/c2ccccn2)nc1-c1ccc(F)cc1
0.68	-0.17	Cc1cc(C(=O)CN2C(=O)CN(C)C2=O)c(C)n1-c1cccc(S(=O)(=O)N2CCOCC2)c1
0.39	-1.3	O=C(N/N=C/c1ccc(Cl)c([N+](=O)[O-])c1)c1ccc2nc[nH]c2c1
0.05	-1.8	O=C(NC1CCCC1)C(c1cccnc1)N(C(=O)c1ccco1)c1ccc(F)cc1 (centres undefined)
1.2	-0.31	COc1cc(CNCc2ccc(C)cc2)cc(OC)c1OC
0.09	0.31	CCCNC(=O)NCc1ccc(N2CCCC2=O)cc1
0.62	0.15	Cc1cc(=O)oc2cc(OCC(=O)N3CC[C@@]4(O)CCCC[C@H]4C3)ccc12
1.4	-1.2	Cn1c(=O)[nH]c(=O)c2c1nc(CN1CCN(c3ccc(F)cc3)CC1)n2CCc1ccccc1
2.2	-1.2	COc1ccc(/C=C2\SC(=O)N(CCNC(=O)Cc3coc4cc(OC)ccc34)C2=O)cc1
0.02	3.8	O=C(CNc1cccc(S(=O)(=O)N2CCCC2)c1)Nc1ccc(F)c(F)c1
0.94	0.79	Cc1nn(-c2ccccc2)c2sc(C(=O)N(CC(=O)NC(C)(C)C)Cc3ccco3)cc12
1.4	-1.2	CC(C)CCNC(=O)c1cc2c(=O)[nH]c3ccccc3c2s1
1.6	0.59	COc1cc(C2=NOC(C(=O)NCc3ccco3)C2)cc(OC)c1OC (centres undefined)
15*	-1.6*	CC1=CCC[C@@H]2[C@@](C)(CC/C(C)=C/C(=O)O)[C@H](C)CC[C@@]12C
0.56	0.23	C[C@@H](C(=O)N1CCNCC1)n1cc(CCCN=C(N)N)nn1

Structural class: the compounds so far containing a carbonyl joined to an NH by a bond outside any ring.
KCNQ2 pot	KCNQ2 pot baseline	structure
2.8	-0.51	CCOC(=O)c1ccc(NC(=O)CSc2nc(C)nc3c2c(=O)n(C)c(=O)n3C)cc1
0.39	-1.3	O=C(N/N=C/c1ccc(Cl)c([N+](=O)[O-])c1)c1ccc2nc[nH]c2c1
0.05	-1.8	O=C(NC1CCCC1)C(c1cccnc1)N(C(=O)c1ccco1)c1ccc(F)cc1 (centres undefined)
0.09	0.31	CCCNC(=O)NCc1ccc(N2CCCC2=O)cc1
2.2	-1.2	COc1ccc(/C=C2\SC(=O)N(CCNC(=O)Cc3coc4cc(OC)ccc34)C2=O)cc1
0.02	3.8	O=C(CNc1cccc(S(=O)(=O)N2CCCC2)c1)Nc1ccc(F)c(F)c1
0.94	0.79	Cc1nn(-c2ccccc2)c2sc(C(=O)N(CC(=O)NC(C)(C)C)Cc3ccco3)cc12
1.4	-1.2	CC(C)CCNC(=O)c1cc2c(=O)[nH]c3ccccc3c2s1
1.6	0.59	COc1cc(C2=NOC(C(=O)NCc3ccco3)C2)cc(OC)c1OC (centres undefined)

Next structures
KCNQ2 pot	KCNQ2 pot baseline	structure
0.41	-0.2	O=[N+]([O-])c1ccc(O)c(/C=N/Nc2ccccn2)c1
0.74	0.41	COC(=O)c1cc(N=Nc2c(C)[nH]c3ccccc23)cc(C(=O)OC)c1
1.5	0.13	CC(NC(=O)C1CC12CCC2)c1ccccc1 (centres undefined)
0.23	-1.7	Cc1ccc(C(=O)NC(=S)N2CC(C)OC(C)C2)cc1[N+](=O)[O-] (centres undefined)
1.1	-0.28	COc1cccc(C(=O)/C=C/Nc2ccc(S(=O)(=O)Nc3ncccn3)cc2)c1
1.4	0.24	CN(C)S(=O)(=O)Oc1ccccc1C(=O)Nc1ccc(F)cc1F
0.29	-0.83	O=C(Nc1ccccc1NC(=O)C1CCCO1)c1ccco1 (centres undefined)
1.4	0.55	Cc1oc2cc3oc(=O)c(CCC(=O)NC4CC4)c(C)c3cc2c1C
1.6	0	CC(=O)c1cccc(NS(=O)(=O)c2ccc(N/C=C/C(=O)c3ccc(F)cc3)cc2)c1
0.4	0.7	CCOc1ccc(-c2ccc(SCC(=O)NCC3CCCO3)nn2)cc1 (centres undefined)
0.77	-1.1	COC(=O)c1cccc(N(C(=O)CNC(=O)c2ccco2)C(C(=O)NC2CCCC2)c2ccco2)c1 (centres undefined)
0.62	0.82	CCOc1ccc(-n2c(Cc3cc(=O)[nH]c(=O)[nH]3)nnc2SCC(=O)Nc2nnc(C)s2)cc1
0.17	1.8	CC(=O)Oc1ccc(/C=C2/SC(=S)N(Cc3ccccc3)C2=O)cc1
0.83	0.12	COCCCNC(=O)CN(Cc1ccc(Cl)cc1)S(C)(=O)=O
0.07	-1.4	COc1ccccc1NC(=O)CC(NCc1ccccc1)C(=O)O (centres undefined)
0.03	-1.7	Cc1ccc(S(=O)(=O)N2CCCN(S(=O)(=O)c3ccc(C)c(C)c3)CC2)cc1C
0.24	0.77	CCN1C(=O)S/C(=C\c2ccc(N3CCOCC3)cc2C)C1=O
3.5	0.08	COc1ccc(C(=O)N(C)CCCC2CCCC2)cc1OC1CCN(C(C)C)CC1
0.3	0.02	COc1cccc(C2=NOC(C(=O)NCc3ccccn3)C2)c1 (centres undefined)
0.86	0.2	CN(C)c1ccc(C(=O)c2ccccc2C(=O)O)c(O)c1
0.49	-0.46	COc1ccc(N(CC(=O)NCCc2ccc(S(N)(=O)=O)cc2)S(=O)(=O)c2c(C)noc2C)cc1
0.06	-0.24	O=C(CSc1nnc(CCc2nc3ccccc3[nH]2)n1-c1ccccc1)NCc1ccccc1
0.03	-0.7	COc1ccccc1C(=O)Nc1ncc2c(n1)CC(c1ccco1)CC2=O (centres undefined)
0.32	0.67	Cc1cc(-n2c(SCC(=O)NCc3cccs3)nc3n[nH]c(C)c3c2=N)ccc1Cl
0.72	-0.79	O=C(Nc1ccc(Cl)cc1)Nc1ccccn1
0.6	0.77	CSc1ccccc1NC(=O)C1=CC(c2ccc(C)cc2)=NS(=O)(=O)N1C
1.1	-1.8	Cc1nc(/N=C(\N)NC(=O)N2c3ccccc3Sc3ccccc32)nc2ccccc12
1.1	-2.8	COc1ccccc1-c1cc(N)n[nH]1
0.76	-0.89	CCOC(=O)CNc1cccc(C(F)(F)F)c1
0.01	-0.32	O=C/C(=C\Nc1ccccn1)c1nc2ccccc2o1
2.8	-1.1	Cc1ccc(S(=O)(=O)NCC(=O)N(CCc2ccccc2)CC(=O)NCc2ccco2)cc1
0.14	1.1	COCCN(C(=O)COC(=O)c1cccc2ccccc12)c1c(N)n(Cc2ccccc2)c(=O)[nH]c1=O
1.8	2.2	CC(=O)NC1=NN(C(C)=O)C(C)(c2ccc(Br)cc2)S1 (centres undefined)
0.05	-0.16	CN1C(=O)C(C)(C)c2cc(S(=O)(=O)N3CCC(C(=O)Nc4ccc(Cl)cc4)CC3)ccc21
0.03	2.9	COc1ccc(CNc2nc3ccccc3n2CCN2CCOCC2)cc1
1.5	-0.03	Clc1ccc(SCCCCN2CCNCC2)cc1
0.34	0.83	CCN(CC)CCCNC(=O)Cn1cc2c(n1)CCC(C)C2 (centres undefined)
0.67	-0.59	CC(=O)Nc1nc(C)c(-c2csc(Nc3cccc(C(C)=O)c3)n2)s1
0.73	0.65	O=C(Nc1ccc(-c2nc3ccccc3[nH]2)cc1)c1ccc(N2C(=O)CCC2=O)cc1
0.33	0.08	Cc1ccc(-c2nnc(N(C)C(=O)C3CCCO3)s2)cn1 (centres undefined)
0.06	-1.3	C#CC[N+]1(CC#Cc2ccc(C#CC[N+]3(CC#C)CCOCC3)cc2)CCOCC1
0.42	-1.1	CC(C)(C)OC(=O)N1CCC(CNC(=O)c2cccs2)CC1
0.87	0.28	CCOC(=O)N1CCN(C(=O)c2nc3ccccc3s2)CC1
0.62	-2.6	O=C(CCC1CCCN(C(=O)CC2=CCCCC2)C1)N1CCN(c2ccccn2)CC1 (centres undefined)
3.3	-0.51	CCc1ccc(NC(=O)Nc2cccs2)cc1
3.9	-0.56	Cc1ccc(NNC(=O)CCc2ccccc2)c(C)c1
1.4	-0.34	Cc1c(C(=O)N/N=C/c2ccc(N3CCOCC3)cc2)nc2ccccn12
0.07	-0.79	Cc1ccc(C(=O)Nc2nn(C)c3cccc(F)c23)cc1
1.5	-0.97	Cc1ccc(S(=O)(=O)N2CCN(C(=O)CSc3nnnn3C)C2)cc1
0.75	-2.8	CC(=O)Nc1ccc(S(=O)(=O)Nc2ccccn2)cc1
1.6	0.97	O=C(CSC(=S)N1CCCC1)Nc1cc2c(cc1Br)OCCO2
0.69	-2.5	CCc1nnc(NC(=O)CN2C(=O)/C(=C/c3ccc(OC)c(OC)c3)SC2=S)s1
0.07	0.05	COc1ccc(/C=C(\C#N)C(=O)NCc2cccs2)cc1OC
0.31	-1.9	O=C(NCCCN1CCOCC1)c1ccc(Sc2ccccc2Cl)c([N+](=O)[O-])c1
0.05	0.33	CCN(CC(=O)Nc1c(F)cccc1F)C(=O)CCCOc1ccc(OC)cc1
0.13	-1	COc1ccc(/C=N/N2C(=O)CSC2=S)cc1Br

The list goes on.
KCNQ2 pot	KCNQ2 pot baseline	structure
0.03	0.01	CCCSc1nnc(-c2c[nH]c3ccccc23)n1CC
0.15	0.08	FC(F)(F)c1nc(NCc2ccccc2)c2nnn(Cc3ccccc3)c2n1
0.19	0.03	O=C(O)c1ccccc1O
0.98	-0.25	Cc1cccc(C)c1N1CCN(S(=O)(=O)N(C)C)CC1
1.2	-0.74	Cc1ccc(-c2c[n+](CC(=O)N3c4ccccc4Sc4ccccc43)c3n2CCC3)cc1
0.24	0.47	CC(=O)N1N=C(c2ccc(C)o2)CC1c1ccc(Br)cc1 (centres undefined)
1.8	-0.56	COc1ccc(CCN(C)CC(O)c2ccccc2)cc1OC (centres undefined)
0.9	-1.2	COc1ccccc1NC(=S)NC(C)=O
0.01	2.6	CCOC(=O)C1(Cc2ccccc2)CCCN(C(=O)c2ccc(-n3ccnc3)cc2)C1 (centres undefined)
2.9	-2.4	COC(=O)c1ccccc1NC(=O)CN1CCC(NC(=O)c2ccc(C)cc2)CC1
0.53	0.52	CCOc1ccc(N2CC(C(=O)Nc3cc(C)on3)CC2=O)cc1 (centres undefined)
1.5	-2.3	COc1ccc(-c2nc(CS(=O)CC(=O)NC3CCCCC3C)c(C)o2)cc1OC (centres undefined)
1.6	-0.66	Cc1noc(C)c1CSc1nnc2scc(-c3ccccc3)n12
1.3	-0.56	Cc1ccsc1/C=N\NC(=O)CC(=O)NCc1ccccc1
0.42	0.49	CC(C)(C)c1ccc(C(=O)O)c(C(=O)c2ccccc2)c1
0.66	-0.76	CC1CC(C)CN(C(=O)CCC(=O)Nc2nnc(C(C)C)s2)C1 (centres undefined)
1.5	-1.3	Cn1c(SCC(=O)N2CCCc3ccccc32)nnc1-c1ccccc1
0.08	0.87	O=C(Nc1cc2c(ccc3ccccc32)oc1=O)C1CCCCC1
1.1	4.3	COc1ccc(C(=O)NC2(C(F)(F)F)N=C3SCCN3C2=O)cc1 (centres undefined)
0.58	0.94	CCOC(=O)Nc1ccc2c(c1)N(C(=O)CCCl)c1ccccc1[S@]2=O
1.8	-1.8	Cc1ccc(COc2coc(CO)cc2=O)cc1
0.02	0.31	Cc1cc(Br)ccc1NC(=O)C1CCN(S(=O)(=O)c2cnc[nH]2)CC1
0.47	1.4	C[n+]1ccn(CC(=O)c2ccc(Cl)cc2)c1
2.4	0.07	CC1CCN(C(=O)Cn2nnc(-c3ccc(C(C)C)cc3)n2)CC1
0.09	0.14	COc1cc(Cl)ccc1OCc1cc(C(=O)NCCCN2CCCC2=O)no1
0.64	-0.08	CC(O)CN1CCN(C(=O)CN2C(=O)NC(c3ccccc3)(c3ccccc3)C2=O)CC1 (centres undefined)
0.68	0.48	CC(C)CC(=O)NC(=S)NCc1ccccc1
0.26	0.04	CC(C)C(=O)NC(=S)Nc1ccc(S(=O)(=O)NC(C)(C)C)cc1
0.11	0.09	CCOc1ccc(N(CC(=O)NCCSc2ccccn2)S(=O)(=O)c2ccc(Cl)cc2)cc1
0.55	-0.27	COc1cc2ccc(=O)oc2c(O)c1OCC=C(C)C
0.04	0.8	O=C(NCc1cccnc1)c1ccc(NS(=O)(=O)c2ccc(F)cc2)cc1
0.24	0.07	COc1cc(C(=O)Nc2ccc3c(c2)Cc2cc(NC(=O)c4cc(OC)c(OC)c(OC)c4)ccc2-3)cc(OC)c1OC
1.4	-1.5	Cc1cnc(NC(=O)c2cncc(Br)c2)s1
0.02	0.19	CCCc1ccc(-c2cc(N)n[nH]2)cc1
0.47	-0.1	Cc1cc(C)n(C(C)Sc2ccccc2)n1 (centres undefined)
0.11	-1.2	Cn1nc(OC(=O)Nc2ccc(Cl)cc2)cc1C(F)(F)F
2.5	-1.2	Cc1[nH]c2ccc(C(=O)OCC(=O)NC3(C#N)CCCCC3)cc2c1C
0.07	-1.1	O=C(O)CC/C(=N\Nc1ccccc1[N+](=O)[O-])c1cccs1
0.73	-0.15	O=C(O)c1cccc(NC(=S)NC(NC(=O)c2cccc([N+](=O)[O-])c2)C(Cl)(Cl)Cl)c1 (centres undefined)
0.36	1.2	CCC(CC)C(=O)c1c[nH]c(C(=O)NCC2CCCO2)c1 (centres undefined)
0.81	-0.91	O=C(Nc1ccnn1C1CCN(C/C=C/c2ccccc2)CC1)c1ccccc1Cl
2	-1.4	Oc1ccc(Nc2ncnc3c2oc2ccccc23)cc1
0.03	0.02	COc1ccc(CCNC(=O)CN2C(=O)c3ccccc3C2=O)cc1

Of the compounds above, 4 have a CF3 group.
KCNQ2 pot	KCNQ2 pot baseline	structure
0.76	-0.89	CCOC(=O)CNc1cccc(C(F)(F)F)c1
0.15	0.08	FC(F)(F)c1nc(NCc2ccccc2)c2nnn(Cc3ccccc3)c2n1
1.1	4.3	COc1ccc(C(=O)NC2(C(F)(F)F)N=C3SCCN3C2=O)cc1 (centres undefined)
0.11	-1.2	Cn1nc(OC(=O)Nc2ccc(Cl)cc2)cc1C(F)(F)F

Screening results from PubChem.
